# YopH inh = YopH (Yersinia) phosphatase inhibition | fluorescence Ex485/Em525 | inhibition, %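 (about 10 µM by stock and volumes)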 | 140,000 tested, 0.16% active | AID 898;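 active means inhibition of 50% or more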;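 further: controls were vehicle for no effect and minimum signal wells for full effect; inactives centre near -20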
# Arbovirus inh = blocks arbovirus infection | arbovirus infection cell-based antiviral screen | inhibition, % at 10 µM | AID 1251 | 200,000 tested, 0.37% active;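 active means inhibition from about 30%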;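 further: bluetongue infection of BSR cells; cell survival read as ATP light after 72 h; 0% = infected wells without compound and 100% = uninfected wells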
# RecA splice inh = blocks M. tuberculosis RecA intein splicing; P9WHJ3; cell-free RecA intein splicing, fluorescence; inhibition, %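 (about 9 µM by stock and volumes)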; 290,000 tested, 0.75% active; in the data active means inhibition above about 30%; inconclusive means no clear call, values can overlap the other calls;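 further: 0% = vehicle wells and 100% = reference inhibitor control wells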
# Target sequence (P9WHJ3 whole entry, looked up, canonical isoform): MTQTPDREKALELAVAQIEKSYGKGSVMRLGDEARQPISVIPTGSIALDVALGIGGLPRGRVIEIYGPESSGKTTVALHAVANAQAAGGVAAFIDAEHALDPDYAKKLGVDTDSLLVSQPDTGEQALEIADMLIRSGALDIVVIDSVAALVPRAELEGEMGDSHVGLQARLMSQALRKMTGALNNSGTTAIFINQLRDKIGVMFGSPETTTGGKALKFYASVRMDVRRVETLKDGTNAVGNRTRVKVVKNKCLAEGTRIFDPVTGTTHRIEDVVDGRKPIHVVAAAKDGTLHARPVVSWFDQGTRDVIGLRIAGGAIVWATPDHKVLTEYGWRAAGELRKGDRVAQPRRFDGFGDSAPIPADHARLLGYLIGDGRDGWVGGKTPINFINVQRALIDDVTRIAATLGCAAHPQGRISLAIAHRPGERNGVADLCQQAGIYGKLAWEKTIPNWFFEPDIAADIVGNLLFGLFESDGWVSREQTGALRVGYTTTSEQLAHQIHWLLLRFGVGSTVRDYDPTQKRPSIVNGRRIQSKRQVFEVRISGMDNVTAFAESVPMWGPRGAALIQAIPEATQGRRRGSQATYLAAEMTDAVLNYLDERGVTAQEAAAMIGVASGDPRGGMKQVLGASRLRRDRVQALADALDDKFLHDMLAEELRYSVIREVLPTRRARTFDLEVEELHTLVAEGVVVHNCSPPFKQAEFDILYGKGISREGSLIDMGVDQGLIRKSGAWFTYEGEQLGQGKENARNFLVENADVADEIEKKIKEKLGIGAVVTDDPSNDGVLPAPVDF
# Mtb growth = M. tuberculosis H37Rv growth inhibitors, H37Rv strain (AID 1626); M. tuberculosis H37Rv growth inhibition; higher % means a stronger effect; inhibition, % at 10 µM, or IC50 in µM where a hit was titrated; 220,000 tested, 0.95% active;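 active means confirmed in a dose series; inconclusive means inhibition above 80% but not taken into the dose series; inactive means below 80% or under 30% at every dose of the series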;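 further: bacteria incubated seven days before Alamar blue readout; 0% = bacteria only wells and 100% = bacteria with antibiotic wells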
# Mtb bLac sens = beta-lactam sensitization of Mtb H37Rv; inhibition, % at 25 µM; M. tuberculosis H37Rv growth with meropenem, percent inhibition; hits of this screen are not shown here; 330,000 tested, 0.27% active;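 active means about 74% or more and at least 40 points above the plate without the antibiotic, then above 30% in a dose series; inconclusive means first-round hits that could not be retested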;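 further: growth measured after seven days incubation then overnight dye step; 0% = bacteria only wells and 100% = bacteria with antibiotic; twin plates without the antibiotic show which effects depend on it; some results filed as inactive read as strong as hits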
# Arbovirus inh repeat = recorded beside Arbovirus inh, whose call it bears; inhibition, %; measured here: 10K subset replicate screen; many hits read low in the repeat;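 first of two repeat runs on a subset; 0% = infected and 100% = uninfected wells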
# Numbers without * were called inactive; ? = inconclusive; · = no result given.
SMILES,YopH inh,Arbovirus inh,RecA splice inh,Mtb growth,Mtb bLac sens,others
COc1ccc(C2C(C(=O)N3CCCC3)c3cc(OC)c(OC)cc3C(=O)N2C)cc1OC (centres undefined),-12,3,0.1,-6%,-1,Arbovirus inh repeat=4
CC(=O)N1CCc2c(sc3c2c(=O)n(-c2ccccc2)c(=O)n3CC(=O)NCC2CCCO2)C1 (centres undefined),·,·,0.1,·,0,
CC(O)CN(Cc1cccc(Cl)c1)CC(C)O (centres undefined),13,8,-3.4,-6%,·,
O=C1CCC(C(=O)N2CCCCO2)CN1Cc1ccc(Cl)cc1 (centres undefined),·,·,2.8,·,?,
Cc1c(CNC(=O)c2cnn3c2NC(c2ccc(Br)cc2)CC3C(F)(F)F)cnn1C (centres undefined),-24,-17,0.3,4.1µM*,100,
COc1cc(SSc2cc(OC)cc([N+](=O)[O-])c2N)c(N)c([N+](=O)[O-])c1,·,·,-2.7,1%,-4,
Cc1cc(-c2ccc(S(=O)(=O)Nc3ccc(C#N)cc3)s2)on1,·,·,-1.0,·,17,
Cc1ccc(C2(O)CN(c3ccccc3)C3=[N+]2CCS3)cc1 (centres undefined),-28,-4,1.3,·,-1,
COc1ccc(OC)c(S(=O)(=O)N2CCN3CCCC3C2)c1 (centres undefined),·,·,-2.4,·,1,
O=C(NC1CCCCC1)c1c2c(nc3ccccc13)CCC2,·,10,2.5,1%,4,
CCn1c(=O)[nH]c2cc(C(=O)N3CCN(c4ccccc4)CC3)ccc2c1=O,-20,3,-0.8,10%,-7,
COc1ccc(/C=N/NC(=O)c2cc(C34CC5CC(CC(C5)C3)C4)[nH]n2)cc1OC,-21,7,-6.6,-1%,-2,
O=c1[nH]n(-c2cccc(Cl)c2)c2ncccc12,-14,1,4.0,-10%,-29,
CN(C)c1ccc(S(=O)(=O)c2ccc(Cl)cc2)cc1,-24,12,1.4,·,?,Arbovirus inh repeat=2
Cc1ccc(NC(=O)CCC(=O)N2CCOCC2)nc1,·,·,-0.7,·,4,
CCC(C)[C@@H]1NC(=O)N(CCCN2CCCC2=O)C1=O (some centres undefined),·,·,-1.0,·,?,
CCC(CC)c1nnc(NC(=O)CS(=O)(=O)c2ccccc2)s1,·,·,1.1,·,-2,
CCOC(=O)C1(CCCc2ccccc2)CCN(C(=O)c2cc(C)nc(C)n2)CC1,·,-8,4.9,2%,12,
CC(C)(C)NC(=O)c1cccc(NC(=O)CSc2ccccc2)c1,-23,2,-2.8,0%,7,
O=C(NCc1ccc2c(c1)OCO2)C(=O)NCC1OCCN1S(=O)(=O)c1ccccc1 (centres undefined),·,·,0.8,·,1,
CCCCCn1cnc2sc(CC)cc2c1=O,-28,-14,-1.1,6%,7,
CCCCN1C(=S)NC[C@@H]1C(C)CC (some centres undefined),·,0,-0.7,10%,-4,
OCCNCc1cc(Br)ccc1OCc1ccc(Cl)cc1,-36,-31,0.4,·,-6,
COc1ccc(C(=O)Nc2oc(-c3ccccc3)c(-c3ccccc3)c2C#N)cc1OC,0,4,-1.3,13%,·,
Cc1cc2c(NC(=O)Nc3ccc(C(C)(C)C)cc3)cccc2nn1,·,·,5.3,·,2,
COc1ccc(N2C(=S)NC(C)(C)CC2(C)c2ccc(OC(C)=O)cc2OC(C)=O)cc1 (centres undefined),·,0,-1.2,0%,-2,
Cc1ccc(C(=O)Cc2nc3ccccc3[nH]2)cc1,·,·,-10,·,-6,
CCOc1ccc(N2C(=O)CC(NC3CCN(C(=O)c4ccc(F)cc4)CC3)C2=O)cc1 (centres undefined),·,·,3.1,·,-7,
COc1ccccc1NC(=S)N1CCN(Cc2ccc3c(c2)OCO3)CC1,-10,1,-0.3,-3%,-6,
COc1ccc(-c2nnc(NC(=O)c3ccc(F)cc3)o2)cc1,-37,-26,-0.9,·,90,
O=[N+]([O-])c1cc(CN2CCC(O)CC2)ccc1Cl,·,10,-7.5,-1%,-4,
Cc1ccc(S(=O)(=O)N2CCOCC2)cc1C(=O)OCC(=O)N1CCc2ccccc2C1,15,12,1.0,-8%,·,
Cc1nnc(SC(C(=O)Nc2cc(Cl)cc(Cl)c2)c2ccccc2)[nH]c1=O (centres undefined),·,12,1.8,1%,-6,
CCCOc1ccc(-c2nc(C#N)c(N3CCN(CC)CC3)o2)cc1,-32,-1,3.7,11%,74,
CCN(CC)c1ccc(/C=C(\C#N)c2nc(-c3cccs3)c(NC(C)=O)s2)cc1,-18,-16,·,46%,·,
CCC(=NCc1cccnc1)c1c(O)n(-c2ccccc2C)c(=O)[nH]c1=O,·,·,-1.4,-5%,-1,
COc1cccc(/C=C2/NC(=O)NC2=O)c1OCC(=O)Nc1ccccc1,·,-2,-9.3,-3%,-4,
O=C(O)C1C2CCC(CC2)C1C(=O)N1CCN(Cc2ccc(F)cc2)CC1 (centres undefined),·,·,-0.9,·,3,
CC(=O)Nc1ccccc1C(=O)N1CC(C)OC(C)C1 (centres undefined),-1,2,-0.6,-3%,0,
Cc1cc(C)nc(N(C#N)S(=O)(=O)c2ccccc2Cl)n1,-23,4,-2.3,-11%,7,
CCC(=O)N1CCc2cc(S(=O)(=O)CCC(=O)Nc3c(C)n(C)n(-c4ccccc4)c3=O)ccc21,-8,·,·,·,4,
O=C(Nc1ncc([N+](=O)[O-])s1)c1ccc2c(c1)OCO2,·,·,31*,·,13,
C=CCNC(=O)c1ccccc1NC(=O)C1CC(=O)N(C(C)C)C1 (centres undefined),·,·,0.3,·,-3,
CCN=C1Cn2c(nc3scc(-c4ccccc4)c3c2=O)CN1CC,-40,-3,·,-7%,-11,
CC(=O)Nc1ccc(S(=O)(=O)NCC2CCC(C(=O)NC(C)c3ccccc3)CC2)cc1 (centres undefined),·,7,-2.0,2%,-2,
Cc1ccc(S(=O)(=O)N2CC3(C)CN(S(=O)(=O)c4ccc(C)cc4)CC(C)(C2)C3)cc1,-28,-6,2.7,-9%,4,
O=C(N/N=C/C(Cl)=C\c1ccccc1)c1cnccn1,-17,13,0.4,-13%,0,
Fc1ccc(OCCOCCN2CCCC2)cc1,·,·,2.4,·,0,
O=[N+]([O-])c1ccc(/C=N/Nc2ccc3ccccc3c2)o1,-36,-3,-0.7,32%,88,
CC(=O)N/C(=C\c1ccccc1)C(=O)OCC(=O)NC(C)C12CC3CC(CC(C3)C1)C2 (centres undefined),-26,-1,-5.5,-1%,6,
COc1cc(S(=O)(=O)Nc2cccnc2)ccc1Cl,·,·,-0.1,·,-11,
O=C(OCC(=O)c1ccc(Cl)cc1Cl)c1ccc2c(c1)C(=O)N(c1cccc3ncccc13)C2=O,-14,9,-0.5,-14%,3,
C/C=C/Cn1c(N2CCCCCC2)nc2c1c(=O)[nH]c(=O)n2C,-51,5,-2.2,·,-1,
Cc1cccc(COCC(Cc2ccccc2)N2CCN(C(=O)c3ccc(Cl)c(Cl)c3)CCC2=O)c1 (centres undefined),-25,-34,12,-2%,-2,
COC(CSc1ncnc2c1oc1nc3c(cc12)COC(C)(C)C3)OC,·,·,8.7,2%,-15,
O=C1CC(N2CCN(S(=O)(=O)c3ccc(Cl)cc3)CC2)C(=O)N1CCc1ccccc1 (centres undefined),-22,12,·,-1%,-5,
CC(=N)C1=C(O)CC(C)(C)CC1=O,-38,1,0.1,-1%,2,Arbovirus inh repeat=5
CC(C)Oc1ccc(/C(O)=C2/C(=O)C(=O)N(Cc3cccnc3)C2c2ccco2)cc1 (centres undefined),-32,8,2.0,-12%,-15,
O=C(CSc1nnc(-c2cccc(F)c2)o1)Nc1nncs1,·,13,-0.4,6%,6,
CCCCN1CCC(C#N)(Nc2ccccc2)CC1,-21,-3,0.0,-4%,-21,

# (list continues)
SMILES,YopH inh,Arbovirus inh,RecA splice inh,Mtb growth,Mtb bLac sens,others
Cc1cc(C)c2cc(C(=O)N3CCC(C(=O)c4ccc(F)cc4)CC3)[nH]c2c1,·,·,-2.0,8%,66,
COc1ccc2c(c1)c(N=NC(N)=S)c(O)n2CC(=O)c1ccccc1,·,·,2.3,·,0,
Cc1onc(-c2ccccc2)c1C(=O)N1CCCC1,·,·,1.3,·,1,
O=S(=O)(c1cc(F)ccc1F)N1CCC2(CC1)OCCO2,·,·,0.8,·,0,
CCOC(=O)N1CCC(N(CCN(C)C)C(=S)Nc2ccccc2OCC)CC1,·,-2,1.2,4%,-1,
O=C(CCNS(=O)(=O)c1ccccc1)OCC(=O)c1ccc(F)cc1,·,·,-3.1,·,-7,
CC(=O)NC1(C2CCCCC2=O)CCCCC1 (centres undefined),-4,-3,4.3,-11%,1,
CC1(C)CC(=O)C(C=NCCN2CCN(CC(=O)Nc3ccc(Cl)cc3)CC2)=C(O)C1,·,-8,-0.4,2%,1,
CC(=O)NC(Cc1c[nH]c2ccccc12)C(=O)Nc1ccc2c(c1)OCO2 (centres undefined),-29,3,2.1,-4%,-11,
Cc1ccccc1NS(=O)(=O)c1ccc(C(=O)NCC(c2ccccc2)N(C)C)cc1 (centres undefined),·,·,-0.7,·,-7,
CC(C)Cn1c(N2CCN(CC(=O)Nc3ccc(Cl)cc3)CC2)nc2ccccc21,·,-9,-0.8,-4%,7,
COc1ccc(C(=O)COC(=O)Cn2cnc3ccccc3c2=O)c(OC)c1,·,·,0.0,·,-2,
CCOc1ccc2c(c1)S/C(=C\c1cccs1)C(=O)N2,·,·,-7.1,4%,-1,
COc1ccc(NC(=O)Nc2nccs2)cc1,-23,-9,-0.3,-8%,1,
Cc1ccc2c(c1)C(c1ccc(F)cc1)N(C(=O)C1CC1)CC(=O)N2 (centres undefined),-9,-6,2.0,6%,-3,Arbovirus inh repeat=-7
Cc1cc(C)cc(CN2C(=O)NC3(CCCCCC3)C2=O)c1,·,·,2.7,·,-1,
COc1cc(C2C(C(=O)c3ccco3)=C(O)C(=O)N2Cc2cccnc2)cc(OC)c1OC (centres undefined),-30,5,·,-10%,1,Arbovirus inh repeat=0
COc1cccc(/C=N/Nc2nnc(C)n2N)c1O,·,·,-1.9,·,3,
C=CC[C@H]1CC(C)=C[C@H](CC=C)N1C(=O)c1cc(COc2ccccc2SC)on1,·,·,-0.5,·,7,
O=S(=O)(NCc1cc(-c2ccccc2Cl)no1)c1ccccc1,-55,3,2.4,1%,71,
COC(=O)c1cc(S(=O)(=O)N2CCN(Cc3ccccc3)CC2)cn1C,·,·,3.8,·,-4,
COc1cc(C2/C(=C(\O)c3ccc4c(c3)OCCO4)C(=O)C(=O)N2Cc2ccco2)ccc1O (centres undefined),·,·,-6.4,·,1,
C=CCn1c(P(=O)(O)c2ccccc2)nc2ccccc21,-2,8,-2.4,-2%,13,
O=C(O)C1Cc2ccccc2CN1C(=O)CCl (centres undefined),·,-20,6.3,-8%,1,
NC(=O)C1CCCN(C(=O)NC2CCCCC2)C1 (centres undefined),-39,-3,0.9,-5%,-8,
Cc1nc(CNC(=O)C2CCC(=O)N(Cc3cccc(F)c3)C2)sc1C (centres undefined),·,·,1.7,·,7,
O=S(=O)(Nc1ccc2c(c1)OCCO2)c1cccc2nsnc12,-18,2,0.1,-2%,2,
Cc1cc2cc(CN(Cc3cccs3)C(c3nnnn3C(C)(C)C)C(C)C)c3nnnn3c2cc1C (centres undefined),-72,-2,-1.1,2%,·,
O=C(Nc1ccc(Cl)cc1)Nc1cc(S(=O)(=O)N2CCOCC2)ccc1N1CCCC1,-29,-14,8.7,-4%,-12,
CCOc1ccccc1NCc1cc(=O)oc2cc(C)c(O)cc12,·,·,-5.0,·,2,
CC[C@H](C)[C@H](NC(N)=O)C(=O)OCC(=O)NCc1ccc(Cl)cc1,·,16,4.6,-7%,-1,

# Grouped by structure: those above containing an NH in an aromatic ring.
SMILES,YopH inh,Arbovirus inh,RecA splice inh,Mtb growth,Mtb bLac sens,others
CCn1c(=O)[nH]c2cc(C(=O)N3CCN(c4ccccc4)CC3)ccc2c1=O,-20,3,-0.8,10%,-7,
COc1ccc(/C=N/NC(=O)c2cc(C34CC5CC(CC(C5)C3)C4)[nH]n2)cc1OC,-21,7,-6.6,-1%,-2,
O=c1[nH]n(-c2cccc(Cl)c2)c2ncccc12,-14,1,4.0,-10%,-29,
Cc1ccc(C(=O)Cc2nc3ccccc3[nH]2)cc1,·,·,-10,·,-6,
Cc1nnc(SC(C(=O)Nc2cc(Cl)cc(Cl)c2)c2ccccc2)[nH]c1=O (centres undefined),·,12,1.8,1%,-6,
CCC(=NCc1cccnc1)c1c(O)n(-c2ccccc2C)c(=O)[nH]c1=O,·,·,-1.4,-5%,-1,
C/C=C/Cn1c(N2CCCCCC2)nc2c1c(=O)[nH]c(=O)n2C,-51,5,-2.2,·,-1,
Cc1cc(C)c2cc(C(=O)N3CCC(C(=O)c4ccc(F)cc4)CC3)[nH]c2c1,·,·,-2.0,8%,66,
CC(=O)NC(Cc1c[nH]c2ccccc12)C(=O)Nc1ccc2c(c1)OCO2 (centres undefined),-29,3,2.1,-4%,-11,

# Assay outcomes from PubChem.

# Only part of the results is shown; count on the stated rates, not on these rows.
